Assay outcomes: PubChem BioAssay, several laboratories
eIF4H inh = human eIF4H binding inhibitors, primary screen, translation initiation inhibitor project, biochemical, uHTS, fluorescence polarization. Eukaryotic translation initiation factor 4H (Homo sapiens), Q15056. eIF4H fluorescence polarization binding assay. inhibition, % at 35 µM. 290,000 compounds, 0.94% hits. AID 2012, 2009;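 active = 50% or more with normal probe brightness, or confirmed in later tests; about a fifth of its hits are not listed in these tables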;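 note: calls also rest on retests at 20 µM and on dose response follow-up; 0% = protein and probe with vehicle and 100% = probe without protein; strong numbers were not always called active; many hits fall short of the cut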
CSC inhib = cancer stem cell viability inhibitors, primary screen, luminescence | cancer stem cell-like cells viability | inhibition, % at 7.5 µM | 300,000 compounds, 1.1% hits;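 active = mean at 75% or more and at least half the replicates too; tested in HMLE shEcad cells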;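 note: 0% = median of negative and 100% = median of positive control wells; the first replicate is given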
UUG fidelity = modulators of yeast start codon fidelity, primary screen, whole organism, S. cerevisiae, single point, plate reader. activity score, % at 18.7 µM. S. cerevisiae UUG-firefly luciferase reporter, luminescence/redox ratio. 350,000 compounds, 0.13% hits;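 active = replicate mean at a twofold rise or more, about +100% in these data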;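 note: firefly luciferase made from a UUG start codon reports start codon fidelity; reporter light over untreated wells divided by growth signal over untreated wells; some hits fall short of that in this replicate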
Rce1 inh = yeast Rce1p protease inhibitors, primary screen, biochemical, fluorescence, cell-free homogeneous; yeast membranes, quenched prenylated peptide cleavage fluorescence; AID 2563, 2010; 290,000 compounds, 0.27% hits; calls only;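 active = fall in fluorescence gain of 50% or more versus controls, with final raw signal at or below 3038400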;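 note: plate controls were neutral control wells for no effect and wells lacking membranes for full effect; tested at 10 µM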
Target sequence (Q03530 whole entry, looked up): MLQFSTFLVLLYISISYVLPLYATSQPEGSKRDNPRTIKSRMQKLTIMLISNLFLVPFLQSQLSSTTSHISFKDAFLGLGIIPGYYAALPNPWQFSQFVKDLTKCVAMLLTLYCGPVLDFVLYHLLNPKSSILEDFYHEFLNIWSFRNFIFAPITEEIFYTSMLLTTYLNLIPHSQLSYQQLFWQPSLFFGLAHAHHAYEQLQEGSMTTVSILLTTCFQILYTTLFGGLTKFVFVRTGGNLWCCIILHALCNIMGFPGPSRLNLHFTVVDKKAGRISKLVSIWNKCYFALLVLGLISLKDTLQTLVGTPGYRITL
HIV Env fusion = inhibitors of HIV-1 Env-driven cell-cell fusion, primary screen, HeLa-JRFL effector, CEM21 target cells, luciferase | inhibition, % at 12.3 µM | 360,000 compounds, 1.1% hits;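 active = mean replicate inhibition score of at least 50 and every replicate individually at or above 50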;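 note: 0% = plate neutral controls and 100% = maraviroc near 300 nM; one replicate is shown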
PABP FP inh = PABP poly(A) RNA binding inhibitors, primary screen, biochemical, fluorescence polarization, uHTS | Polyadenylate-binding protein 1 (Homo sapiens), P11940 | inhibition, % at 35 µM | 290,000 compounds, 1% hits | AID 2014, 2009;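 active = 50% or more with normal probe brightness, or confirmed in later tests; about a fifth of its hits are not listed in these tables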;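 note: calls also rest on retests at 20 µM and on dose response follow-up; controls were probe without protein and protein plus probe with vehicle; some compounds called inactive have numbers as strong as hits; many hits fall short of the cut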
MT1-MMP act inh = blockers of MT1-MMP proenzyme processing, primary screen, HT1080 RFP-PRO-GFP cells, GFP/RFP fluorescence; GFP/RFP ratio fluorescence, overnight; percent of plate control window, DMSO zero; GFP/RFP ratio change, % at 20 µM; Matrix metalloproteinase-14 (Homo sapiens), P50281; 360,000 compounds, 0.061% hits; AID 651647, 2012;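 active = GFP/RFP ratio change of at least 30% with cell ATP level not reduced by more than half and red fluorescence within 50% of control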; note: strong numbers were not always called active
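Test system: HT1080 cells expressing an RFP-PRO-GFP fluorescent reporter construct / Compound dosing: single-point 20 µM compound, 1% DMSO / Schedule: cells overnight before dosing, compound overnight, 37 °C, 5% CO2 / Evaluation: GFP/RFP fluorescence ratio / Control set: DMSO and RFP-L50D-GFP cell wells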
MT1-MMP act inh RFP = also measured in MT1-MMP act inh; calls as there; RFP signal change, %; measured here: RFP expression control read;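 0 = vehicle wells; hits needed this value within 50% of zero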
Active calls of the source: *; i = inactive; nt = not tested or not shown. The list is partial. The share of hits here may be higher or lower than overall.

1. O=C(Sc1ccc(Cl)cc1)c1cccc(Cn2cc(C(F)(F)F)ccc2=O)c1
2. CC(C)(C)NC(=O)C1N(c2cccnc2)C(=O)C2C(C(=O)Nc3ccccc3)C3(C)C=CC21O3 (centres undefined)
3. O=C(Cn1ccc(NC(=O)OCc2ccccc2)nc1=O)NCc1ccccn1
4. CC(=O)c1sc(NC(=O)CSCc2c(C)noc2C)nc1-c1ccccc1
5. O=C(NCc1ccc(F)cc1)C(=O)NCC1OCCN1S(=O)(=O)c1cccs1 (centres undefined)
screen / no.,1,2,3,4,5
CSC inhib,11,-11,-5,1,-5
Rce1 inh,i,i,nt,nt,i
eIF4H inh,-6,-7,nt,nt,2
HIV Env fusion,16,-233,-24,1,3
MT1-MMP act inh,-13,-2,1,-5,1
MT1-MMP act inh RFP,-9,2,3,-5,3
UUG fidelity,nt,-19,-17,-11,-13
PABP FP inh,3,8,nt,nt,7

Structural class, those above with a halogen
1. O=C(Sc1ccc(Cl)cc1)c1cccc(Cn2cc(C(F)(F)F)ccc2=O)c1
5. O=C(NCc1ccc(F)cc1)C(=O)NCC1OCCN1S(=O)(=O)c1cccs1 (centres undefined)
screen / no.,1,5
CSC inhib,11,-5
Rce1 inh,i,i
eIF4H inh,-6,2
HIV Env fusion,16,3
MT1-MMP act inh,-13,1
MT1-MMP act inh RFP,-9,3
UUG fidelity,nt,-13
PABP FP inh,3,7

More structures follow.
6. COCCCNC(=O)Cn1ncc2c(=O)oc3ccccc3c21
7. Cc1cc(C)nc(N/N=C/c2cn[nH]c2-c2ccc(F)cc2)n1
8. O=C1COc2cc(O)ccc21
9. Cc1ccc(OCC(=O)NCCNC(=O)COc2ccc(C)cc2)cc1
10. O=C(Nc1cccc(/C=C/c2ccccn2)c1)c1cc(Cl)ccn1
screen / no.,6,7,8,9,10
CSC inhib,-9,-9,nt,6,5
Rce1 inh,i,i,nt,i,i
eIF4H inh,-15,-9,nt,-6,-6
HIV Env fusion,nt,-5,-3,-2,-19
MT1-MMP act inh,-2,-1,-3,2,1
MT1-MMP act inh RFP,2,-1,1,-1,4
UUG fidelity,-12,-20,8,-9,0
PABP FP inh,-1,-3,nt,-5,12

11. CCOC(=O)c1c(C)oc2c1c(C=NCCC(=O)O)c(O)c1ccccc12
12. CCO[C@@H]1OC(C(=O)NCc2nc3ccccc3[nH]2)=C[C@H](c2ccccc2)[C@H]1CCCO
13. O=C1CCCN1Cc1ccccc1
14. COC(=O)C(C(=O)OC)c1ncccc1[N+](=O)[O-]
15. O=C(Nc1cccc(C(F)(F)F)c1)c1cc2c(=O)c3ccccc3oc2nc1C(F)(F)F
screen / no.,11,12,13,14,15
CSC inhib,-7,-17,-5,-21,10
Rce1 inh,i,i,i,i,i
eIF4H inh,41,-7,-4,-3,-11
HIV Env fusion,16,10,1,-2,-83
MT1-MMP act inh,-19,4,4,-3,0
MT1-MMP act inh RFP,8,4,5,-1,-8
UUG fidelity,-3,-8,-6,-1,-4
PABP FP inh,-2,2,5,-7,2

16. CC(=O)NCc1ccc(S(=O)(=O)N/N=C/c2ccc(Br)cc2)cc1
17. COc1cc(C2C(C(=O)c3ccc(C)o3)=C(O)C(=O)N2Cc2cccnc2)ccc1O (centres undefined)
18. CCOC(=O)CSc1nnnn1-c1cc(OC)c(Cl)cc1OC
19. O=C(CSc1nnc(Cn2c(=O)sc3ccccc32)n1-c1ccccc1)N1CCOCC1
20. O=C1N=C2SCCN2/C1=C\c1c(Cl)cccc1Cl
screen / no.,16,17,18,19,20
CSC inhib,3,-18,15,-8,-8
Rce1 inh,i,i,i,nt,i
eIF4H inh,-8,-4,7,2,1
HIV Env fusion,2,nt,nt,nt,nt
MT1-MMP act inh,-6,1,-1,4,-8
MT1-MMP act inh RFP,4,1,-4,-2,-3
UUG fidelity,nt,-5,-12,-15,-2
PABP FP inh,-8,19,6,-1,5

21. O=C(COC(=O)CSc1ccc(F)cc1)NCC1CCCCC1
22. CON/C=C(\C=Nc1ccc(Cl)cc1Cl)c1ncc(C(F)(F)F)cc1Cl
23. CN(C)C(=O)c1cc2cc([N+](=O)[O-])ccc2s1
24. COc1ccc(CC(NC(C)=O)C(=O)NC2CCN(c3c4c(nc5ncnn35)CCC4)CC2)cc1OC (centres undefined)
25. COc1ccc(CC(=O)N(Cc2ccccc2)c2ccccc2)cc1S(=O)(=O)N1CCOCC1
screen / no.,21,22,23,24,25
CSC inhib,-4,-8,-4,8,-2
Rce1 inh,i,i,i,nt,i
eIF4H inh,3,-10,-14,-3,0
HIV Env fusion,7,-28,nt,nt,5
MT1-MMP act inh,-3,-7,8,nt,-2
MT1-MMP act inh RFP,0,0,0,nt,0
UUG fidelity,16,-38,-4,nt,16
PABP FP inh,26,-3,-9,7,3

26. CCCSC1=N/C(=C\C=C\c2ccco2)C(=O)S1
27. NCCCCCc1nnc(SCC(=O)Nc2cccc(Cl)c2)o1
28. COC(=O)c1cc(CNC(=O)c2sccc2-c2ccccc2)ccc1OC
29. COc1ccc(NC(=O)Cn2nc(C(F)(F)F)c3c2CCCC3)c(OC)c1
30. CNS(=O)(=O)c1ccc(N2CCCC2)c([N+](=O)[O-])c1
screen / no.,26,27,28,29,30
CSC inhib,-14,-22,-7,-17,-7
Rce1 inh,i,i,i,i,i
eIF4H inh,94*,-9,-8,-6,-7
HIV Env fusion,nt,-5,19,-10,4
MT1-MMP act inh,-6,2,0,-6,-1
MT1-MMP act inh RFP,7,5,-3,-6,0
UUG fidelity,nt,-10,-1,-15,nt
PABP FP inh,101*,2,21,6,16

Another view of part of the listing above.
Under each structure: CSC inhib, Rce1 inh, eIF4H inh, HIV Env fusion, MT1-MMP act inh, MT1-MMP act inh RFP, UUG fidelity, PABP FP inh
28) COC(=O)c1cc(CNC(=O)c2sccc2-c2ccccc2)ccc1OC
→ -7, i, -8, 19, 0, -3, -1, 21
29) COc1ccc(NC(=O)Cn2nc(C(F)(F)F)c3c2CCCC3)c(OC)c1
→ -17, i, -6, -10, -6, -6, -15, 6

Single values from the entries so far.
PABP FP inh with COC(=O)c1cc(CNC(=O)c2sccc2-c2ccccc2)ccc1OC : 21
MT1-MMP act inh RFP with COc1ccc(NC(=O)Cn2nc(C(F)(F)F)c3c2CCCC3)c(OC)c1 : -6
CSC inhib with CNS(=O)(=O)c1ccc(N2CCCC2)c([N+](=O)[O-])c1 : -7

More records
31. CCC(C)(C)NC(=O)COc1ccc(C(=O)c2ccccc2)cc1
32. COc1cccc(-n2c(Cc3cc(=O)[nH]c(=O)[nH]3)nnc2SCc2cccnc2)c1
33. O=C(Nc1nc(-c2ccco2)c(-c2ccco2)s1)c1c(F)cccc1Cl
34. Cc1nnc(SCC(=O)NC(C)(C)C)n1C1CCCCC1
35. COC(=O)[C@@H]1C[C@@]2(O)[C@H](O)[C@H](O)[C@H](O)C[C@H]2N1Cc1cccc2ccccc12
screen / no.,31,32,33,34,35
CSC inhib,7,-12,-15,-8,-4
Rce1 inh,i,i,nt,i,i
eIF4H inh,-4,7,nt,-4,9
HIV Env fusion,5,30,14,-2,33
MT1-MMP act inh,2,-6,-6,-3,-1
MT1-MMP act inh RFP,1,6,5,3,1
UUG fidelity,nt,10,-16,nt,-7
PABP FP inh,7,13,nt,10,-1

36. Nc1nc(-c2ccco2)nn1C(=O)c1ccc(F)cc1
37. N#C/C(=C(/O)c1ccc([N+](=O)[O-])cc1)c1nc2ccccc2[nH]1
38. Cc1ccc(-n2nc3c(=O)n(CC(=O)NC4CCCCC4)nc(C)c3c2C)cc1
39. CC(C)(C)n1nc(Cc2cccc3ccccc23)c(C#N)c1N
40. COCCn1nnnc1C(C(C)C)N(Cc1cccnc1)Cc1cc2cc(OC)ccc2[nH]c1=O (centres undefined)
screen / no.,36,37,38,39,40
CSC inhib,nt,6,3,4,1
Rce1 inh,i,i,i,i,i
eIF4H inh,1,14,nt,nt,5
HIV Env fusion,4,7,16,4,nt
MT1-MMP act inh,3,3,5,-2,-4
MT1-MMP act inh RFP,-2,-4,-5,-1,7
UUG fidelity,-9,-10,-3,-5,-9
PABP FP inh,4,-8,nt,nt,3

41. Cc1ccc(C)c(S(=O)(=O)NCC(=O)Nc2sc3c(c2C(N)=O)CCC(C)C3)c1 (centres undefined)
42. COc1ccc(CCNC(=O)COc2ccc(N(C)S(=O)(=O)c3ccc(C)cc3)cc2)cc1OC
43. Cc1ccc(S(=O)(=O)NNC(=O)Nc2ccc([N+](=O)[O-])cc2)c(C)c1
44. CCc1nc2ccc(C(=O)NCc3ccc4c(c3)OCO4)cn2c1N(CCC(C)C)CCN(C)C
45. COCCCNS(=O)(=O)c1ccc(Cl)c(C(F)(F)F)c1
screen / no.,41,42,43,44,45
CSC inhib,20,-3,-3,nt,-9
Rce1 inh,i,i,i,nt,i
eIF4H inh,-2,-1,8,nt,3
HIV Env fusion,nt,23,-1,-53,15
MT1-MMP act inh,1,4,-4,-2,0
MT1-MMP act inh RFP,6,-12,-3,1,0
UUG fidelity,-13,nt,-6,-7,nt
PABP FP inh,-12,-1,-17,nt,35

46. C=C(C)COC(=O)C1CC2OC2CC1C(=O)OCC(=C)C (centres undefined)
47. COc1cc(OC)c(C(=O)OCN2C(=O)c3ccccc3C2=O)cc1OC
48. CCN1CCN(C2CC(=O)NC2=O)CC1 (centres undefined)
49. CC1CCCN(S(=O)(=O)c2ccc(S(=O)(=O)N3CCCN(Cc4ccccc4)C3)cc2)C1 (centres undefined)
50. S=C(Nc1ccc(Oc2ccccc2)cc1)NC1CCCC1
screen / no.,46,47,48,49,50
CSC inhib,nt,5,-6,nt,17
Rce1 inh,nt,i,i,i,i
eIF4H inh,nt,-5,-6,0,-3
HIV Env fusion,5,-3,nt,-72,-30
MT1-MMP act inh,1,1,nt,1,2
MT1-MMP act inh RFP,4,3,nt,-1,3
UUG fidelity,-15,-17,nt,-22,nt
PABP FP inh,nt,4,-1,6,-5

51. Cc1cccc(COCCN2CCN(S(=O)(=O)c3ccccc3)CCC2=O)c1
52. CN(C)S(=O)(=O)c1cccc(C(=O)NCc2ccco2)c1
53. O=C(Nc1ccc(NC(=O)c2ccco2)cc1)c1ccc2c(c1)OCO2
54. CNC(=O)C1CC(=O)N(CCc2ccc(OC)cc2)C(=Nc2ccc(OC)cc2)S1 (centres undefined)
55. CCc1ccc(CN(C)CC(=O)Nc2ccccc2[N+](=O)[O-])cc1
screen / no.,51,52,53,54,55
CSC inhib,-6,-18,-3,-10,4
Rce1 inh,i,i,i,i,i
eIF4H inh,2,4,-14,4,-7
HIV Env fusion,-1,-17,nt,-31,26
MT1-MMP act inh,0,-6,6,1,-7
MT1-MMP act inh RFP,-1,1,0,-3,-5
UUG fidelity,-9,nt,-25,2,-33
PABP FP inh,-3,-3,-11,6,1

56. Cc1nc(C)n(C(C)CNC(=O)c2cccc(Br)c2)n1 (centres undefined)
57. Cc1onc(-c2c(Cl)cccc2Cl)c1C(=O)NNc1ccccc1
58. Nc1ccc(N2CCOCC2)c(Cl)c1
59. CN(Cc1ccccc1)S(=O)(=O)c1cccc2cccnc12
screen / no.,56,57,58,59
CSC inhib,-10,91*,9,1
Rce1 inh,i,nt,nt,nt
eIF4H inh,6,-2,5,-2
HIV Env fusion,10,20,-19,-115
MT1-MMP act inh,-4,-4,0,1
MT1-MMP act inh RFP,1,-2,4,2
UUG fidelity,-11,nt,-10,-19
PABP FP inh,3,4,0,0
